Bioassay records as filed in PubChem BioAssay.
ugtP null kill = growth inhibition of S. aureus ugtP deletion strain; S. aureus RN4220 ugtP deletion, OD600 growth, 16 h; some inactives read as strong as hits; growth inhibition, % (concentration not given with the values); 330,000 compounds, 0.54% hits;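 active means z-score under -3 and OD600 up to 0.15 on both plates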;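 further: plate controls were untreated wells for no effect and antibiotic for full effect; wells of about 80 µL received 100 nL stock; the first replicate is given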
Sa RN4220 lethal = S. aureus RN4220 growth inhibition; OD600, 16 h; inhibition, % (concentration not given with the values); 330,000 compounds, 0.33% hits; AID 1259311;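 active means z-score of -3 or lower and OD600 up to 0.18 on both plates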;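 further: plate controls were untreated cells for no effect and reference antibiotic for full effect; stock transfer was 100 nL into about 80 µL; one replicate is shown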
Bead autofluor = flagged as autofluorescent in microsphere protease counterscreen. compound autofluorescence counterscreen, microsphere flow cytometry; stronger effect = higher value. fluorescence intensity (test concentration not listed). 360,000 compounds, 3.1% hits. AID 624483;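 active means at least 3 SD above the mean of all compounds, about 16000 in these data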;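 further: 100 nL of 1 mM stock went into each well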
PrP UTR inh = suppresses PrP 5' UTR mRNA reporter expression; cell-based PrP 5' UTR mRNA reporter, plate reader; 340,000 compounds, 0.35% hits; inhibition, % (concentration not given with the values);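 active means every replicate at 50% or more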;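 further: 0 = median of the neutral control wells; tested in H4 reporter cells; numbers are from one replicate; inactives centre near -14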
BJeLR viability = BJeLR cell viability loss. 300,000 compounds, 0.17% hits. BJeLR (HRASV12) viability, CellTiter-Glo ATP luminescence, 48 h; reference of the scale not given here. inhibition, % (no concentration beside the values);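 active means replicate mean above 50%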;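 further: 50 nL library stock added to about 25 µL; numbers are from one replicate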
Mtb hypoxia rep = Mtb hypoxia fluorescent reporter inhibition; M. tuberculosis hypoxia-regulated fluorescent reporter, fluorescence; fluorescence inhibition, % (test concentration not listed); 300,000 compounds, 0.1% hits; AID 1159583;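 active means 35 to 45% if threefold the growth effect, above 45% if 1.5-fold the growth effect; inactive means the rest, general growth blockers included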;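 further: wells of about 50 µL received 100 nL stock; 0% = vehicle wells and 100% = reference inhibitor wells; whole bacteria with a GFP reporter of the hypoxia response; strong numbers were not always called active; many hits fall short of the cut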
Mtb hypoxia rep growth = recorded beside Mtb hypoxia rep, whose call it bears; growth inhibition, %; measured here: M. tuberculosis growth (absorbance);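 0% = vehicle and 100% = reference antibiotic; read after six days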
* hit, by the source's call; . = no result given. Rows are unselected. About 4% of those tested had a hit in this group.

Compound	ugtP null kill	Sa RN4220 lethal	Bead autofluor	PrP UTR inh	BJeLR viability	Mtb hypoxia rep	Mtb hypoxia rep growth
COc1cccc(CN2CCNC(=O)C2CC(=O)NCCN2CCCCC2=O)c1 (stereo not given)	.	.	4097	2	3	.	.
N#CCCN(C(=O)CN1C(=O)NC2(CCCC2)C1=O)c1ccccc1F	8	0.3	2272	-11	-9	.	.
O=C(CSc1nnc(NC(=O)C2CC2)s1)Nc1ccc(F)cc1F	4	-1.3	5288	-15	-1	13	9
COc1ccc(OCC(O)CN2CCN(c3ccc(Cl)cc3)CC2)cc1 (stereo not given)	2	0.8	3188	-8	10	-9	6
Cc1ccc2nc(-c3ccc(O)c(O)c3)cn2c1	.	.	3436	21	-4	.	.
CC(=O)C1(C)OC(N)=C(C#N)C(c2ccccc2)C1(C#N)C#N (stereo not given)	-1	5.4	11196	8	-6	7	1
C#CCOc1ccc(C2C3=C(CC(C)(C)CC3=O)N(CC(=O)O)C3=C2C(=O)CC(C)(C)C3)cc1OC	8	6.3	4137	-24	-10	10	1
O=C(O)CN=CC1=C(O)CC(c2ccccc2)CC1=O (stereo not given)	5	4.4	4143	5	-2	5	-6
O=C(Nc1ccc(-c2nc3cc(NC(=O)c4cccs4)ccc3o2)cc1)c1cccs1	-4	3.2	22139*	1	5	2	2
CC1=CC(C)(C)[N+](C)=CN1c1ccccc1	8	2.6	2456	-10	10	3	-2
CCC(C)[C@H]1COCCS(=O)(=O)N1Cc1ccc(C)cc1 (stereo not given in full)	.	.	3546	-18	-3	.	.
N#CCOC(=O)[C@H](Cc1ccccc1)N1C(=O)c2ccccc2C1=O	5	4.0	2991	-10	8	1	-3
COC(=O)C1=C(c2ccccc2OCc2ccccc2)CC2CCC1N2C(=O)NCc1ccc([N+](=O)[O-])cc1 (stereo not given)	-17	-1.1	.	.	.	3	15
O=S(=O)(NCc1ccc2c(c1)OCO2)c1ccc(F)c(F)c1	1	4.9	3116	11	25	2	-3
c1ccc(-c2cn(CC3CCC(Cn4cc(-c5ccccn5)nn4)O3)nn2)nc1 (stereo not given)	-1	0.7	.	.	.	6	12
COc1cc(C2c3c(oc4ccccc4c3=O)C(=O)N2c2nccs2)ccc1O (stereo not given)	3	3.2	3307	-7	-3	-8	-2
CCOc1ccc(Cl)cc1/C=N/NC(=O)c1ccccc1	.	.	1845	-18	1	.	.
COCCn1c(SCC(=O)NC2CCCC2)nc2ccccc2c1=O	7	6.0	6707	2	.	3	2
O=C(NCc1cccnc1)C(=O)NCC1OCCCN1S(=O)(=O)c1ccccc1 (stereo not given)	-3	1.4	2458	-8	-2	-6	12
COC(=O)c1ccccc1NC(=O)n1cc(C)cn1	5	5.0	5516	-15	3	8	5

14 structures out of the list, ordered by count of non-hydrogen atoms, falling.
Compound	ugtP null kill	Sa RN4220 lethal	Bead autofluor	PrP UTR inh	BJeLR viability	Mtb hypoxia rep	Mtb hypoxia rep growth
COC(=O)C1=C(c2ccccc2OCc2ccccc2)CC2CCC1N2C(=O)NCc1ccc([N+](=O)[O-])cc1 (stereo not given)	-17	-1.1	.	.	.	3	15
C#CCOc1ccc(C2C3=C(CC(C)(C)CC3=O)N(CC(=O)O)C3=C2C(=O)CC(C)(C)C3)cc1OC	8	6.3	4137	-24	-10	10	1
O=C(Nc1ccc(-c2nc3cc(NC(=O)c4cccs4)ccc3o2)cc1)c1cccs1	-4	3.2	22139*	1	5	2	2
c1ccc(-c2cn(CC3CCC(Cn4cc(-c5ccccn5)nn4)O3)nn2)nc1 (stereo not given)	-1	0.7	.	.	.	6	12
COc1ccc(OCC(O)CN2CCN(c3ccc(Cl)cc3)CC2)cc1 (stereo not given)	2	0.8	3188	-8	10	-9	6
COCCn1c(SCC(=O)NC2CCCC2)nc2ccccc2c1=O	7	6.0	6707	2	.	3	2
O=C(CSc1nnc(NC(=O)C2CC2)s1)Nc1ccc(F)cc1F	4	-1.3	5288	-15	-1	13	9
CC(=O)C1(C)OC(N)=C(C#N)C(c2ccccc2)C1(C#N)C#N (stereo not given)	-1	5.4	11196	8	-6	7	1
O=S(=O)(NCc1ccc2c(c1)OCO2)c1ccc(F)c(F)c1	1	4.9	3116	11	25	2	-3
CCOc1ccc(Cl)cc1/C=N/NC(=O)c1ccccc1	.	.	1845	-18	1	.	.
O=C(O)CN=CC1=C(O)CC(c2ccccc2)CC1=O (stereo not given)	5	4.4	4143	5	-2	5	-6
COC(=O)c1ccccc1NC(=O)n1cc(C)cn1	5	5.0	5516	-15	3	8	5
Cc1ccc2nc(-c3ccc(O)c(O)c3)cn2c1	.	.	3436	21	-4	.	.
CC1=CC(C)(C)[N+](C)=CN1c1ccccc1	8	2.6	2456	-10	10	3	-2

(continued)
Compound	ugtP null kill	Sa RN4220 lethal	Bead autofluor	PrP UTR inh	BJeLR viability	Mtb hypoxia rep	Mtb hypoxia rep growth
COc1ccc2ccccc2c1/C=N/NC(=S)Nc1cc(S(=O)(=O)N2CCOCC2)ccc1N1CCOCC1	.	.	10114	-18	-13	.	.
CNC(=O)c1cc(C(=O)c2ccc(Cl)cc2)c[nH]1	5	1.6	4171	-41	-7	2	-4
Cc1cc(OCC(=O)N2CCC(C(N)=O)CC2)c2c(C)c(C)c(=O)oc2c1	-5	3.1	5997	-3	5	.	.
COC(=O)c1cc(COc2ccc3c4c(c(=O)oc3c2)CCC4)c(C)o1	0	-1.8	.	.	-1	.	.
CCCc1cc(=O)n2c(nc3ccccc32)[nH]1	1	5.4	3839	-20	-5	.	.
Cc1cc(C)c2cc(C#N)c(NCCOC(=O)c3ccccc3C)nc2c1	-6	2.6	13757	-11	-2	11	3
O=C(c1ccc(F)cc1)N1CCN(c2ccc([N+](=O)[O-])cc2-n2cccc2)CC1	47	-3.2	5239	-3	-4	-9	8
Cc1scc(C(=O)N/N=C/c2ccc([N+](=O)[O-])o2)c1C	.	.	5555	24	12	.	.
CC1Sc2ccc(S(=O)(=O)CCC(=O)Nc3ccc(C(C)C)cc3)cc2NC1=O (stereo not given)	2	-0.1	4507	-18	-1	-4	1
COc1ccccc1NC(=O)c1ccc2nsnc2c1	0	3.6	3622	-54	4	6	-2
CCN(CC)CCN1C(=O)C2C(C(=O)Nc3ccc(C(C)C)cc3)C3C=CC2(O3)C1C(=O)NC1CCCCC1 (stereo not given)	0	2.2	3834	-24	2	15	4
N#CC1=C(N)Oc2c(oc(CO)cc2=O)C1c1cccs1 (stereo not given)	5	2.4	3135	4	2	18	5
O=C1C=C(c2ccoc2)N2CCC[C@H]2C1	10	-0.8	2849	-12	.	-1	-7
Cc1cccc(NCc2nc(SCC(=O)Nc3ccccc3Br)n[nH]2)c1	6	-4.0	4081	-17	-7	21	6
Cc1ccc(-c2nc(-c3ccccc3)no2)c(Cl)c1	11	0.3	4002	65*	11	2	4
COc1ccccc1Nc1nc(N)nc(CSC(=S)N2CCC(C)CC2)n1	16	8.3	2515	-16	1	6	13
CCCC(=NNC(=O)c1csc(C)c1C)c1ccc(Cl)s1	2	3.2	.	.	.	19	8
COc1ccc(Br)cc1/C=N/NC(=O)CNC(=O)/C=C/c1ccccc1	.	.	3683	-1	-1	.	.
O=C(CN1CCN(S(=O)(=O)/C=C/c2ccccc2)CC1)NCC(F)(F)F	7	3.1	4771	0	-1	3	2
Cc1cccc(C(=O)N2CCN(S(=O)(=O)N3CCCCCC3)CC2)c1	16	2.1	4027	-20	-4	9	2
O=C(CCC(=O)OCC(=O)c1ccccc1)NC1CCCCC1	3	6.8	10183	-62	-14	16	7
COc1ccc(/C=C2/C(=O)N(c3ccccc3)N=C2C)cc1Br	-3	-1.4	3759	-15	-3	-6	2
O=C(O)c1ccc2cc(-c3ccccc3)[nH]c2c1	9	4.6	3729	-6	-2	13	6
O=[N+]([O-])c1ccc(Sc2cccc[n+]2[O-])c2nonc12	18	14	4845	-19	30	.	.
Cc1cc(=O)[nH]c(SCC(=O)N2CCN(S(=O)(=O)c3ccccc3)C2)n1	3	2.5	4049	-19	4	-13	-16
Cc1cc(Cl)n2nc(C)c(-c3ccc(Cl)cc3)c2n1	12	9.1	4277	-22	.	-2	3
Cc1ccc(C)c(NC(=O)c2cc[n+](C)cc2)c1	10	2.8	2975	-12	14	3	0
COc1ccccc1N(CC(=O)NCCC1=CCCCC1)S(=O)(=O)c1ccccc1	-3	2.1	4684	7	3	2	-4
O=C(CCC1COc2ccccc2O1)N1CCCC1 (stereo not given)	-4	4.2	3620	-4	5	.	.
O=C(CSc1ccc(F)cc1)Nc1nnc(-c2ccco2)o1	3	3.9	4369	-22	3	4	-8

3 records picked at random from those above, as already listed:
Compound	ugtP null kill	Sa RN4220 lethal	Bead autofluor	PrP UTR inh	BJeLR viability	Mtb hypoxia rep	Mtb hypoxia rep growth
O=C(CSc1ccc(F)cc1)Nc1nnc(-c2ccco2)o1	3	3.9	4369	-22	3	4	-8
O=C(CCC(=O)OCC(=O)c1ccccc1)NC1CCCCC1	3	6.8	10183	-62	-14	16	7
Cc1ccc(C)c(NC(=O)c2cc[n+](C)cc2)c1	10	2.8	2975	-12	14	3	0

The list goes on.
Compound	ugtP null kill	Sa RN4220 lethal	Bead autofluor	PrP UTR inh	BJeLR viability	Mtb hypoxia rep	Mtb hypoxia rep growth
O=C(Nc1ccc(S(=O)(=O)Nc2nccs2)cc1)c1nn(-c2ccc(F)cc2)ccc1=O	-6	3.8	4169	-24	1	21	22
O=C(N/N=C/C=C/c1ccco1)c1cccc([N+](=O)[O-])c1	.	.	2453	7	5	.	.
CCCC(C)n1[nH]c(=O)c2c1NC(=O)CSC2c1ccccc1 (stereo not given)	6	4.5	4576	-18	-1	11	10
Cc1ccc(COn2c(-c3ccc(Cl)cc3Cl)nc3ncccc32)cc1	-9	11	3342	-6	5	5	12
C=CCOC(=O)c1sc(NC(=O)c2ccco2)nc1C	-16	-3.0	19408*	-61	-1	-3	-2
OC(c1ccc2c(c1)OCO2)c1nccc2ccccc12 (stereo not given)	-3	-0.2	8890	-14	-5	1	7
CCc1ccc(N2C(=O)C3ON(c4ccccc4)C(c4ccco4)C3C2=O)cc1 (stereo not given)	-5	0.5	4291	-18	-2	.	.
COc1cc(OC)cc(C(=O)Nc2ccn(C)n2)c1	1	2.8	3894	-22	.	13	5
Cc1nnc(N/N=C/c2ccc([N+](=O)[O-])cc2)n1N	.	.	3206	-16	11	.	.
Cc1cccc(OCCCC(=O)Nc2ccc(Cl)c(S(=O)(=O)N3CCOCC3)c2)c1	-5	0.3	.	.	.	10	0
CCSc1nc(-c2ccccc2)nc(C(Cl)Cl)n1	67	1.9	3405	63*	24	.	.
Cc1nc2c(C(=O)N3CCN(C)CC3)cnn2c(C)c1Cc1ccc(Cl)cc1	2	2.2	7694	-10	-8	11	7
COc1ccc(NC2CS(=O)(=O)CC2NCc2ccco2)cc1 (stereo not given)	-1	-0.5	5077	-19	0	.	.
Cc1cccc(N2CCN(C(=S)Nc3ccc4nc(N5CCN(C)CC5)cc(C)c4c3)CC2C)c1 (stereo not given)	8	3.9	3593	-30	-2	18	15
O=C(CCN1C(=O)c2ccc([N+](=O)[O-])cc2C1=O)Nc1cccc(O)c1	2	1.5	10515	-15	-4	-2	2
Cc1nc2ccccc2n1CCOc1ccc([N+](=O)[O-])cc1	15	3.9	4018	-48	12	7	-3
COc1ccc(N(CC(=O)Nc2cccc(N(C)S(C)(=O)=O)c2)S(=O)(=O)c2ccccc2)cc1Cl	22	7.2	4839	-12	6	3	1
CN(C)S(=O)(=O)c1ccccc1N=C=S	0	5.1	3998	-7	.	3	-11
COc1ccc(-c2nc(C(N)=O)c3[nH]c(=O)n(-c4ccccc4OC)c3n2)c(OC)c1	5	0.5	4486	10	12	8	3
Cc1ccc2c(c1)N(CCC(=O)NC(C)C)C(=O)CO2	-1	-0.9	9850	-6	1	-8	-6
